Bioassay records (PubChem BioAssay)
TRPV1 potentiator: human TRPV1 potentiation; potentiation, % at 8.33 µM; hit rate 0.02% among 320,000; TRPV1-expressing cells, Fluo-8 calcium influx, capsaicin EC20 potentiation; host cell line not named in the record; control for the full effect not named in the record; AID 540277; active means potentiation above 80%; inconclusive means 30% to 80%; inactive means below 30%; further: 0% is about no effect
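Cells expressing TRPV1 were dye-loaded with Fluo-8 and read kinetically: 10 s baseline, 3 min after compound (agonist portion), then 2 min after EC20 capsaicin (allosteric enhancer portion). Calcium-bound dye fluorescence at 480/520 nm.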
CtBP-E1A blk: CtBP/E1A binding inhibition; AlphaScreen GST-E1A/His-CtBP binding, 1536-well; stronger effect = lower value; control for the full effect not named in the record; hit rate 0.49% among 340,000; activity change, % (test concentration not listed); AID 651724; in the data active means activity change below about -65%; inconclusive means about -30% to -65%; inactive means above about -30%; further: on the % scale 0 is the no-effect control and ±100 the full control effect; compound concentration not given in the record
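AlphaScreen with 125 nM GST-E1A and 125 nM His-CtBP (5X stocks) in Tris pH 8.0, 300 mM NaCl, BSA, Tween 20, TCEP. Compounds preincubated 2 h at 37 deg C, then glutathione donor/nickel acceptor beads added for 1 h at 37 deg C in dark.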
TRPML1 blocker: human mucolipin-1 channel inhibition; activity change, negative = inhibition, % (concentration not given with the values); hit rate 0.02% among 390,000; AID 624415; TRPML1-inducible cells, Ca2+ dye fluorescence, FDSS; stronger effect = lower value; inhibition of EC80 agonist-evoked calcium signal; in the data active means activity change below about -50%; inconclusive means about -30% to -50%; inactive means above about -30%;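 further: stimulus is agonist 54-4 at its EC80 concentration; on the % scale 0 is the no-effect control and ±100 the full control effect; compound concentration not given in the record; the text of the record puts the active cut at -80%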
Target sequence (Q9GZU1 whole entry, looked up): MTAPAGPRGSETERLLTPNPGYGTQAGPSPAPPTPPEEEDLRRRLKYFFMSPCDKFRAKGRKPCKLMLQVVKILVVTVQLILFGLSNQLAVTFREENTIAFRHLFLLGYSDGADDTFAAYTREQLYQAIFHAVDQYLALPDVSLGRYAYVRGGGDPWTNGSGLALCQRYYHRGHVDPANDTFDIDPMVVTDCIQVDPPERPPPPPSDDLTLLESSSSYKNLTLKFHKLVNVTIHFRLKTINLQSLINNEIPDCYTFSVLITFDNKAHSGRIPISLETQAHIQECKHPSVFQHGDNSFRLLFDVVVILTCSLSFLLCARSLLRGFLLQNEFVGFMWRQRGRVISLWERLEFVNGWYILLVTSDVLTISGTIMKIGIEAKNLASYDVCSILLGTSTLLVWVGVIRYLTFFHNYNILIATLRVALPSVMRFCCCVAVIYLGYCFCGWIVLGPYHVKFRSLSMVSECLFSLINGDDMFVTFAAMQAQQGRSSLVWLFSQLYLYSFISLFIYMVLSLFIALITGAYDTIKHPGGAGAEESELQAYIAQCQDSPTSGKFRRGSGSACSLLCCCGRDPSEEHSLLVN
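TRPML1-DL cells, Tet-induced overnight (~16 h, 37 °C) at 1,500 cells/well, were loaded with Ca8 no-wash dye plus quencher for 45-90 min at room temperature. Compounds were pinned during FDSS kinetic reading; agonist 54-4 at EC80 (4 uM final) then added.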
D2 potentiator: human D2 receptor positive allosteric modulation; P14416; DiscoveRx D2 beta-arrestin cells, luminescence, 90 min; 100% = 57 uM dopamine signal; potentiation, % (test concentration not listed); hit rate 0.23% among 360,000; AID 624464; active = potentiation of 50% or more; inconclusive = 30% to 50%; inactive = 30% or less;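 further: compound concentration not given in the record; tested on top of an EC20 dose of dopamine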
Target sequence (P14416 whole entry, looked up): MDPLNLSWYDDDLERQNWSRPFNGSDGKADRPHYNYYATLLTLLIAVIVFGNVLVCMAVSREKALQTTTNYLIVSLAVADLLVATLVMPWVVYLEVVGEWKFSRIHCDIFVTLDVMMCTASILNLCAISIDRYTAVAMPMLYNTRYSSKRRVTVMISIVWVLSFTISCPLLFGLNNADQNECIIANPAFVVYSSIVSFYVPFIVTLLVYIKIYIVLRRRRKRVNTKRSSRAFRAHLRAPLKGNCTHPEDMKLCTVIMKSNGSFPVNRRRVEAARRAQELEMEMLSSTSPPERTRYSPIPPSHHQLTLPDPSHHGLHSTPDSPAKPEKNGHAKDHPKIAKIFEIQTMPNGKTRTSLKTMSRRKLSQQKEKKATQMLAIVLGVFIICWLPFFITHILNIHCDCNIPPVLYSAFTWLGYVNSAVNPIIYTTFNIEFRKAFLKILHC
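PathHunter D2 cells, attached overnight at 37 deg C, received compound in DMSO plus dopamine at EC20 (50 nM final) for 90 min at 37 deg C. Beta-arrestin recruitment was read as luminescence after 1 h with detection reagent at ambient temperature.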
TRPML1 ag: agonists of human TRPML1 channel; TRPML1-expressing cells, Ca2+ dye fluorescence, FDSS; host cell line not named in the record; reference of the full effect not given here; activation, % (test concentration not listed); hit rate 0.12% among 410,000; in the data active = activation above about 50%; inconclusive = about 30% to 50%; inactive = below about 30%; further: 0% is about no effect; the text of the record puts the active cut at 80%
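In this qHTS format, compounds were pin-transferred onto Ca8-dye-loaded TRPML1-DL cells induced with Tet overnight, and intracellular Ca2+ fluorescence was recorded kinetically for 110 s after a 10 s baseline. A subsequent 4uM final 54-4 (EC80) addition followed by a second 110 s read served as the antagonist phase.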
Six1-Eya2 blk: blocks human Six1 binding to Eya2; activity change, % (test concentration not listed); AID 651725; hit rate 0.56% among 360,000; AlphaScreen GST-Six1/His-Eya2 binding, biochemical; stronger effect = lower value; control for the full effect not named in the record; Q15475+O00167; in the data active = activity change below about -65%; inconclusive = about -30% to -65%; inactive = above about -30%; further: on the % scale 0 is the no-effect control and ±100 the full control effect; compound concentration not given in the record
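Compounds are tested against tagged Six1 and Eya2 proteins bridged by glutathione donor and nickel acceptor beads; after a one-hour incubation at 37 °C without light, AlphaScreen emission is recorded.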
An asterisk follows results filed as active; ? = inconclusive; . = not tested or not shown; & = joins results of further samples.

SMILES	TRPV1 potentiator	CtBP-E1A blk	TRPML1 blocker	D2 potentiator	TRPML1 ag	Six1-Eya2 blk
CCOC(=O)N1CCC(NC(=O)C2CCCN(Cc3nc(-c4ccc(CC)cc4)oc3C)C2)CC1 (centres undefined)	7	-16	-14	-8	0.4	-2
O=C(NC12CC3CC(CC(C3)C1)C2)N1CCC(O)CC1	-20	7	6	-3	0.0	-1
O=C(c1ccccc1)c1cc([N+](=O)[O-])ccc1N1CCCC1	-6	-14	9	-7	1.2	-8
Nc1ccn(CC(=O)NCc2ccccc2)c(=O)n1	6	-23	19	-6	-0.6	-1
Cc1cccc(Nc2c(F)c(F)c(F)c(F)c2C(=O)O)c1	?	1	6	4	0.1	-1
O=C(CSc1nnnn1-c1ccccc1)NCC1(N2CCCCC2)CCCCC1	-1	2	0	-3	-0.3	2
COc1ccc(-c2ccc(CN3C(C(C)C)C(=O)N(Cc4cn(CC5CCCCC5)nn4)CCS3(=O)=O)cc2)cn1 (centres undefined)	.	0	-8	-5	-0.5	-5
Cc1cc(C)c(NC(=O)Cn2nnc(S(=O)(=O)c3ccc(C)c(C)c3)c2N)c(C)c1	2	.	-22	.	0.8	.
COc1cc(O)c(C(CC(=O)N2CCN(c3ccccc3)CC2)c2ccc(N(C)C)cc2)c(OC)c1 (centres undefined)	?	?	-19&-9	-11	0.3&0.1	?
C=CCC(C(=O)OC)(C(=O)OC)c1ccc([N+](=O)[O-])cc1[N+](=O)[O-]	-23	-5	-6	25	0.7	-1
S=c1[nH]nc(-c2ccccc2Cl)n1CC1CCCO1 (centres undefined)	3	0	3	-15	-0.2	6
CCCCCn1nc(C(=O)OCc2nc(N)nc(Nc3ccccc3)n2)c2ccccc2c1=O	.	-4	-4	4	1.9	-1
Cc1cccc(NC(=O)c2cc(=O)n(Cc3ccccc3)c(=O)[nH]2)c1	-12	4	-2	2	-0.9	4
CC(C)Nc1nc(-c2ccncc2)nc(-c2ccccc2)c1C#N	-12	0	14	0	1.9	4
CC1(C(=O)NS(=O)(=O)c2ccc(Cl)cc2)CCN1C(=O)c1ccc(C2CCCCC2)cc1 (centres undefined)	.	0	.	0	-0.6	-1
Cc1ccc(C(=S)N2CCCCCC2)cc1	10	1	22	-8	-0.3	-4
O=C(NCCC(=O)N1CCN(C(=O)c2ccco2)CC1)c1ccccc1Cl	.	5	11	-8	0.8	8
Cc1ccc2c(cnn2C(=O)CCC(=O)NCc2cccc(Cl)c2)c1	-11	5	10	-4	-0.7	0
C=CCNc1nc(NCc2ccccc2)nc(OCC)n1	-16	6	-1	3	1.7	2
CC(=O)C(=Cc1ccc(-c2ccccc2)cc1)C(=O)c1ccccc1	.	12	.	.	-0.2	3
Cc1ccc(S(=O)(=O)N2CCOCC2)cc1C(=O)NC(C)CCc1ccccc1 (centres undefined)	.	3	3	-2	4.3	-4
CCOC(=O)C1=C(C)NC(=O)NC1c1ccccc1 (centres undefined)	11	-9	0	-6	-0.2	-25
CCSc1nc2sc3c(c2c(=O)n1CC)CCC3	-8	.	-10	-18	2.4	15
CCOc1cc(N2CCOCC2)c(OCC)cc1NC(=O)c1ccco1	-2	9	7	-10	-1.3	-9
Cc1c(OC(C)C(=O)N2C[C@H]3C[C@@H](C2)c2cccc(=O)n2C3)ccc2c3c(c(=O)oc12)CCC3 (some centres undefined)	-10	-19	.	-20	.	0

Molecules listed so far with an aryl thioether with sulfur outside any ring (2):
SMILES	TRPV1 potentiator	CtBP-E1A blk	TRPML1 blocker	D2 potentiator	TRPML1 ag	Six1-Eya2 blk
O=C(CSc1nnnn1-c1ccccc1)NCC1(N2CCCCC2)CCCCC1	-1	2	0	-3	-0.3	2
CCSc1nc2sc3c(c2c(=O)n1CC)CCC3	-8	.	-10	-18	2.4	15

Continued:
SMILES	TRPV1 potentiator	CtBP-E1A blk	TRPML1 blocker	D2 potentiator	TRPML1 ag	Six1-Eya2 blk
COc1ccc(C(=O)NC(=S)Nc2cccc3nc(C)ccc23)cc1OC	-28	-9	8	-10	1.2	-8
Cc1cc(C)nc(SCCS(=O)(=O)Cc2ccc(Cl)cc2)n1	?	-1	-12	-9	-0.1	15
CC(C)C(=O)N1CCC2(CC1)Oc1ccc(Cl)cc1C(=O)C21CC(c2cccnc2)=NO1 (centres undefined)	-49	-9	-2	-9	0.3	4
Cc1cccc(Nc2nnc(-c3ccc(C(=O)N4C[C@H]5C[C@H](C4)c4cccc(=O)n4C5)cc3)c3ccccc23)c1	12	-23	0	-4	0.3	-22
Cc1ccc(NC(=O)CSCC(=O)N2c3ccccc3CCc3ccccc32)cc1	3	8	-2	-15	0.4	-8
CCn1ncc(Br)c1C(=O)Nc1ccn(C23CC4CC(CC(C4)C2)C3)n1	3	-14	12	-2	0.5	1
CCCCC[C@@H](C)N1C[C@@H](COCc2ccccc2)Oc2cc(N3CCC[C@H]3C(N)=O)ccc2S1(=O)=O	.	-10	.	.	-0.1	-8
COc1cc(CNCC(O)c2ccccc2)ccc1OCc1ccc(Cl)nc1 (centres undefined)	-4	20	7	-29	-0.3	14
COc1ccccc1N1CCN(CCCN2C(=O)C3CCCCN3C2=O)CC1 (centres undefined)	.	2	1	-10	2.0	1
COC(=O)c1ccc(CNC(=O)CN(CCC(C)C)S(=O)(=O)c2ccc3c(c2)OCCO3)cc1	-17	-7	-7	-39	0.9	-8
Cn1c(=O)c2[nH]c(CN3CCCCC3)nc2n(C)c1=O	.	3	-3	2	0.6	0
CCN(CC)S(=O)(=O)c1ccc2oc(C(=O)NC3CCCc4ccccc43)c(C)c2c1 (centres undefined)	4	1	60	-8	1.1	-2
Cc1cc(C)cc(OCC(=O)OC(C)C(=O)Nc2c(C)n(C)n(-c3ccccc3)c2=O)c1 (centres undefined)	15	7	-3	11	-0.3	-2
CCC(C)(C)n1nnnc1C(c1cccs1)N1CCN(Cc2ccccc2)CC1 (centres undefined)	1	-3	-5	-12	-0.5	-6
Cc1ccc([N+](=O)[O-])cc1N=C1C(=O)Nc2ccccc21	12	-4	-8	-42	0.7	-9
Cc1oc(C(=O)O)cc1COc1cccc2cccnc12	5	-71*	9	-4	0.6	?
CCS(=O)(=O)n1nc(-c2ccc(Cl)cc2)nc1SCc1ccccc1	16	-1	-7	-8	0.2	11
C=CCNC1=C(Cl)C(=O)N(Cc2ccccc2)C1=O	4	38	16	-7	0.7	8
CCOC(=O)c1c(NC(=O)COC(=O)C2CCC2)sc(C(=O)N(C)C)c1C	-18	7	-7	16	1.0	-6
CC(C)OCCCn1c(SCC(=O)Nc2ccccc2C(F)(F)F)nc2nccnc2c1=O	8	9	0	2	-1.0	7
S=C1NC[C@H](Cc2cccc3ccccc23)N1CC1CCCCC1	27	-13	36	-8	1.8	0
CC1CCN(C(=O)C(C)OC(=O)CSc2ccc([N+](=O)[O-])cc2)CC1 (centres undefined)	-27	-7	6	-5	0.1	-1
Cn1nc(CC(=O)NCCN2C(=O)CSC2=O)c2ccccc2c1=O	.	4	8	-20	-0.4	-1
O=S(=O)(c1ccccc1)N1CCC2(CC1)OCCN2S(=O)(=O)c1cccs1	1	0	10	-2	-0.2	0
O=C(C1=NN[C@@H]2C(=O)N(c3ccccc3C(F)(F)F)C(=O)[C@H]12)C(c1ccccc1)c1ccccc1	4	6	-4	-7	0.9	8

(cont.)
SMILES	TRPV1 potentiator	CtBP-E1A blk	TRPML1 blocker	D2 potentiator	TRPML1 ag	Six1-Eya2 blk
COC(=O)C(Cc1c[nH]c2ccccc12)NC(=O)CCNC(=O)c1ccco1 (centres undefined)	.	4	13	-2	-0.6	9
COc1ccc(OC)c(NC(=O)c2nc(S(=O)(=O)Cc3ccccc3)ncc2Cl)c1	7	3	-8	-4	1.9	11
COc1ccc(-c2cnnc(N/N=C/c3ccc(O)cc3)n2)cc1	-4	.	0	1	3.1	-16
O=C(CCN1CCN(S(=O)(=O)c2ccc(Cl)cc2)CC1)Nc1ccccc1F	3	0	15	-1	1.6	0
CC(C)(C)[C@@H]1C=C(C(=O)NCc2ccccc2)O[C@H](OCc2ccc(CO)cc2)C1	-2	-18	8	-9	4.4	2
CCn1nc(C)cc1C(=O)N1CCCC(C(=O)c2ccccc2SC)C1 (centres undefined)	6	1	46	-6	1.3	3
O=C(CCCCCn1c(=S)[nH]c2cc3c(cc2c1=O)OCO3)N1CCN(c2ccc(F)cc2)CC1	?	-2	0	3	0.7	1
COc1ccc(C)cc1S(=O)(=O)N1CCC(C(=O)NCCC2=CCCCC2)CC1	27	-1	1	-12	-0.1	1
O=C1NC[C@@H](CCCCN2C[C@H](Cc3ccccc3)N(CC3CCCCC3)C(=O)C2=O)N(Cc2ccccc2)C1=O	.	-5	.	.	-0.6	-7
O=C(CNCC1CCCO1)N1CCN(S(=O)(=O)c2ccc3ccccc3c2)CC1 (centres undefined)	4	0	15	-4	-0.8	-2
COc1ccc(OC)c(NC(=O)Cn2c(-c3ccc(Cl)cc3)noc2=O)c1	5	2	22	3	0.4	-1
CCN(Cc1ccc(OC)c(COC)c1)CC1CCCN(CCc2cccc(OC)c2)C1 (centres undefined)	-4	.	17	-59	-0.2	-1
O=C(NNC(=O)c1cccs1)c1ccc([N+](=O)[O-])cc1	17	3	0	-9	0.5	11
FC(F)(F)c1ccccc1Cc1c(-c2ccc(Cl)cc2)nc2c3ccccc3ccn12	.	3	.	.	-0.2	3
O=S(=O)(c1ccc(F)cc1)N1CCC(N2CCCC2)CC1	-20	-8	0	-6	0.1	3
O=C(O)c1ccc(-c2ccccc2Cl)o1	1	2	38	-4	0.7	1
Cc1nn(-c2nc3ccccc3s2)c(N)c1-c1ccccc1	14	10	0	-2	-0.7	0
CCCC(=O)Nc1ccc(N2CCN(S(C)(=O)=O)CC2)cc1	1	7	27	-3	0.7	3
Cc1nc2c([N+](=O)[O-])c(C)c(C)cc2[nH]1	27	0	9	-7	1.8	-1
C/C(O)=C\c1nc2ccccc2oc1=O	.	-1	-12	10	-0.1	0
Cc1ccc2nc(NC(=O)CSc3nc4c(c(=O)n3C)SC(C)C4)sc2c1 (centres undefined)	6	-3	20	17	0.5	-13
CCN1CCN(CCOc2ccccc2-c2ccccc2)CC1	5	-12	13	-4	0.4	-2
CCCCC(O)(c1ccc(OC)cc1)C(CN1CCOCC1)c1ccccc1 (centres undefined)	-15	3	28	-1	1.4	-6
Cn1c(=O)c2c(ncn2CC(COCc2ccccc2)OCc2ccccc2)n(C)c1=O (centres undefined)	5	-10	-21	-5	0.8	3

Entries above that have a thiophene ring, fused or not:
SMILES	TRPV1 potentiator	CtBP-E1A blk	TRPML1 blocker	D2 potentiator	TRPML1 ag	Six1-Eya2 blk
CCSc1nc2sc3c(c2c(=O)n1CC)CCC3	-8	.	-10	-18	2.4	15
CCC(C)(C)n1nnnc1C(c1cccs1)N1CCN(Cc2ccccc2)CC1 (centres undefined)	1	-3	-5	-12	-0.5	-6
CCOC(=O)c1c(NC(=O)COC(=O)C2CCC2)sc(C(=O)N(C)C)c1C	-18	7	-7	16	1.0	-6
O=S(=O)(c1ccccc1)N1CCC2(CC1)OCCN2S(=O)(=O)c1cccs1	1	0	10	-2	-0.2	0
O=C(NNC(=O)c1cccs1)c1ccc([N+](=O)[O-])cc1	17	3	0	-9	0.5	11
